rRNA inh HTS: inhibitors of bacterial rRNA selective over humanized ribosomes. E. coli WT GFP vs humanized-ribosome RFP mutants, fluorescence, 24 h; hits give low values; DMSO median 0, no signal -100. GFP signal change (wild-type ribosome), % (test concentration not listed). 350,000 tested, 1.6% active. AID 720706;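 active = significant combined selectivity score with lowered wild-type GFP, culture density cut under 30%, mutant RFP and density less affected; inactive = any of these conditions unmet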; note: one replicate is shown; some compounds called inactive have numbers as strong as hits
FGF22 binding: binders of recombinant human FGF22 by thermal shift. Q9HCT0. calls only at 9.99 µM. SYPRO orange fluorescence; percent of sucrose octasulfate shift, DMSO zero. 340,000 tested, 1.5% active;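 active = melting point raised past a set limit in the mean and every replicate; three in four hits are not shown here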
Target sequence (Q9HCT0 whole entry, looked up): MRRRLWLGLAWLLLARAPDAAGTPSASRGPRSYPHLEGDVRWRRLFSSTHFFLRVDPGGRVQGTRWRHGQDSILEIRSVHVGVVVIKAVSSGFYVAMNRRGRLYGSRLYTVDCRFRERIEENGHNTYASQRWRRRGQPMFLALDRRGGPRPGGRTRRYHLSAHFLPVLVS
MLL AF4-AF9 inh: MLL-AF4/AF9 protein interaction inhibition; AlphaScreen, biotin-AF4 peptide binding to FLAG-AF9; inhibition, % at 10 µM; 350,000 tested, 0.47% active; AID 651704;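 active = every replicate reaching a set inhibition limit, whatever the replicate mean, cut at about 25% in these data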;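 note: 0% = plate neutral control median and 100% = total signal loss; the record names both 10 and 1 µM as test concentration; the first replicate is given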
Target sequence (P42568 whole entry, looked up): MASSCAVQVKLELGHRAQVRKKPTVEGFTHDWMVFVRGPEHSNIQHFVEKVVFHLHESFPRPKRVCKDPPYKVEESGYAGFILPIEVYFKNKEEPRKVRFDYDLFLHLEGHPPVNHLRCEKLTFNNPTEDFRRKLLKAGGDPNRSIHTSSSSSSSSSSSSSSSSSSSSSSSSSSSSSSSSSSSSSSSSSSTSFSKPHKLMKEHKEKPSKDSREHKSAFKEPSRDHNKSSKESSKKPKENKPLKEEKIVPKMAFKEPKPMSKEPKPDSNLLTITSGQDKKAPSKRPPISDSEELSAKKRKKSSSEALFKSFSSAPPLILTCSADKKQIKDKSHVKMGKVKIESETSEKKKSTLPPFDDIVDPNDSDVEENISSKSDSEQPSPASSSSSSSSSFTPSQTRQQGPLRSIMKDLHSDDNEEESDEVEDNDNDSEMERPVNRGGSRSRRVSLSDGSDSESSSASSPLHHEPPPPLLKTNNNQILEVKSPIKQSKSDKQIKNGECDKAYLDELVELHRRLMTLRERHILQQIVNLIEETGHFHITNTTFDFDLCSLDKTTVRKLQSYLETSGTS
rRNA inh HTS OD600: further read-out of rRNA inh HTS, marked with its call; OD600 change, %; measured here: OD600 growth;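 optical density of the mix in the first replicate; 0 = DMSO median and -100 = no signal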
rRNA inh HTS RFP: second read-out of rRNA inh HTS, no call of its own (marks repeat the call); RFP signal change, %; measured here: RFP humanized mutant strains;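 first replicate; 0 = DMSO median and -100 = no signal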
The depositor's hits bear a star; i = inactive; . = no result given; & = joins results of further samples. These rows are one share of the data, so the mix of outcomes need not match the whole.

Values run as follows: rRNA inh HTS RFP	rRNA inh HTS	MLL AF4-AF9 inh	rRNA inh HTS OD600	FGF22 binding
- COc1ccc(S(=O)(=O)N[C@@H]2CC[C@H](CCn3cc(C(C)C)nn3)O[C@H]2CO)cc1
    -2.6	1	-0.4	7	i
- Cc1cc2oc(=O)cc(CN3CCN(c4ccccc4)CC3)c2cc1Cl
    -1.6	2	-0.7	-1	i
- CC1(C(=O)Nc2ccccc2)Cc2c(-c3cccc(C(N)=O)c3)ccnc2O1 (configuration not stated)
    -3.2	4	-0.5	9	i
- CCCNC(=O)Nc1ccc2c(c1)C(=O)N(C)C[C@H](OC)[C@@H](C)CN(C(C)=O)[C@H](C)CO2
    -2.0	5	-1.9	3	i
- C[C@@H]1CCCCO[C@H](CN(C)C(=O)NC2CCCCC2)[C@H](C)CN([C@@H](C)CO)C(=O)c2cc(NC(=O)Nc3ccc4c(c3)OCO4)ccc2O1
    -0.5	3	3.1	9	i
- CCCNC(=O)Nc1ccc2c(c1)C(=O)N(C)C[C@@H](OC)[C@H](C)CN(C(=O)C1CCCCC1)[C@H](C)CO2
    0.5	1	-2.6	-2	i
- COc1cccc(S(=O)(=O)N(C)C[C@H]2Oc3ncc(C#CCN(C)C)cc3C(=O)N([C@H](C)CO)C[C@@H]2C)c1
    3.3	1	-0.8	1	i
- CN1OC[C@@H]2CN(C(=O)CCc3ccccc3)[C@H](c3cccc(-c4ccccc4)c3)C[C@@H]21
    -0.9	-17	0.0	-37	i
- COCCNC(=O)C[C@@H]1CC[C@@H]2[C@H](COC[C@H](O)CN2S(=O)(=O)c2ccccc2C)O1
    -0.5	0	-1.5	8	i
- C[C@@H]1CCCCO[C@@H](CN(C)S(=O)(=O)c2cccs2)[C@H](C)CN([C@@H](C)CO)C(=O)c2cc(NC(=O)Nc3ccc(C(F)(F)F)cc3)ccc2O1
    -1.4	3	-1.1	7	i
- O=C(NCCN1CCCCC1)[C@@H]1[C@@H](CO)[C@@H]2Cn3c(cccc3=O)[C@H]1N2C(=O)C1CC1
    -1.4	4	-0.3	12	i
- COC(=O)N1CCCCC1c1cc(C(=O)NCc2ccc(Cl)c(Cl)c2)no1 (configuration not stated)
    2.8	3	2.6	-16	i
- C[C@H]1CN([C@@H](C)CO)C(=O)c2cc(C#Cc3cccnc3)cnc2O[C@@H]1CN(C)C(=O)CC1CC1
    -0.8	1	-22	-3	i
- COc1cc(C(=O)Nc2cc(S(=O)(=O)N3CCOCC3)ccc2N2CCN(C)CC2)cc(OC)c1OC
    -0.4	0	-5.1	4	i
- CCCCCC(=O)N1C[C@@H](O)[C@H](n2cc(COC(=O)c3ccccc3)nn2)C[C@@H]1c1ccc(C)cc1
    6.9	-3	-2.3	-22	i
- CCC(=O)Nc1ccc2c(c1)OC[C@H](C)N(CC1CC1)C[C@H](C)[C@H](OC)CN(C)C2=O
    -2.3	0	-0.4	0	i
- COc1ccc(-c2cc(NC=O)c3ncc(-c4cccc(C(C)=O)c4)n3c2)cc1
    2.1	-3	-9.7	-1	i
- CN(C)C(=O)C[C@H]1CC[C@H](NC(=O)c2ccc(F)cc2)[C@@H](CO)O1
    -0.7	-1	-3.1	-5	i
- O=C(N[C@H]1CC[C@H](CCNS(=O)(=O)c2ccccc2)O[C@H]1CO)c1cnccn1
    -2.6	5	-0.3	10	i
- COc1ccccc1-c1ccc2c(c1)O[C@H](CN(C)S(=O)(=O)c1ccccc1)[C@@H](C)CN([C@H](C)CO)S2(=O)=O
    -2.1	-4	2.4	-5	i
- CO[C@H]1CN(C)C(=O)c2cc(NC(=O)c3nc4ccccc4s3)ccc2OC[C@@H](C)N(Cc2cncnc2)C[C@H]1C
    3.6	-8	6.0	-4	i
- C[C@@H]1CN([C@H](C)CO)C(=O)Cc2cc(NC(=O)Cc3cn(C)c4ccccc34)ccc2O[C@@H]1CN(C)C(=O)Nc1ccc(C(F)(F)F)cc1
    -1.1	0	-1.9	1	i
- C[C@@H]1CCCCO[C@H](CN(C)S(C)(=O)=O)[C@H](C)CN([C@@H](C)CO)C(=O)c2cc(NC(=O)Nc3cccc4ccccc34)ccc2O1
    0.4	-5	4.7	-13	i
- CCCNC(=O)N1C[C@H](O)COC[C@H]2O[C@H](CC(=O)N3CCOCC3)CC[C@@H]21
    -2.3	3	-6.0	4	i
- CO[C@H]1CN(C)C(=O)c2ccc(NC(=O)Nc3ccc(Cl)cc3)cc2OC[C@@H](C)N(C)C[C@H]1C
    0.9	-2	5.8	-2	i
- CC(C)NC(=O)Nc1ccc2c(c1)C(=O)N([C@@H](C)CO)C[C@H](C)[C@@H](CN(C)S(=O)(=O)c1ccc(F)cc1)OCCCC[C@@H](C)O2
    0.0	-5	-0.6	-5	i
- CCCCCCCCN1C(=O)[C@H](CC(=O)NCC2CCCCC2)C[C@@]2(C(=O)OC)CC(C)(C)CC=C12
    -0.1	36	-2.4	15	i
- COc1ccccc1Cc1c(C(C)(C)C)nc2c(C)cc(Br)cn12
    5.5	-7	1.3	9	i
- C[C@@H]1CN([C@@H](C)CO)S(=O)(=O)c2ccc(C3=CCCCC3)cc2O[C@@H]1CN(C)C(=O)Nc1ccc2c(c1)OCO2
    7.6	1	7.5	-11	i
- C[C@@H]1CCCCO[C@H](CN(C)C(=O)Cc2ccccc2)[C@@H](C)CN([C@@H](C)CO)C(=O)c2cc(NS(C)(=O)=O)ccc2O1
    -1.8	-4	-3.1	-3	i

Eight of the compounds above, with the structure last:
rRNA inh HTS RFP | rRNA inh HTS | MLL AF4-AF9 inh | rRNA inh HTS OD600 | FGF22 binding | smiles
-2.6 | 1 | -0.4 | 7 | i | COc1ccc(S(=O)(=O)N[C@@H]2CC[C@H](CCn3cc(C(C)C)nn3)O[C@H]2CO)cc1
-1.6 | 2 | -0.7 | -1 | i | Cc1cc2oc(=O)cc(CN3CCN(c4ccccc4)CC3)c2cc1Cl
-3.2 | 4 | -0.5 | 9 | i | CC1(C(=O)Nc2ccccc2)Cc2c(-c3cccc(C(N)=O)c3)ccnc2O1 (configuration not stated)
-2.0 | 5 | -1.9 | 3 | i | CCCNC(=O)Nc1ccc2c(c1)C(=O)N(C)C[C@H](OC)[C@@H](C)CN(C(C)=O)[C@H](C)CO2
-0.5 | 3 | 3.1 | 9 | i | C[C@@H]1CCCCO[C@H](CN(C)C(=O)NC2CCCCC2)[C@H](C)CN([C@@H](C)CO)C(=O)c2cc(NC(=O)Nc3ccc4c(c3)OCO4)ccc2O1
0.5 | 1 | -2.6 | -2 | i | CCCNC(=O)Nc1ccc2c(c1)C(=O)N(C)C[C@@H](OC)[C@H](C)CN(C(=O)C1CCCCC1)[C@H](C)CO2
3.3 | 1 | -0.8 | 1 | i | COc1cccc(S(=O)(=O)N(C)C[C@H]2Oc3ncc(C#CCN(C)C)cc3C(=O)N([C@H](C)CO)C[C@@H]2C)c1
-0.9 | -17 | 0.0 | -37 | i | CN1OC[C@@H]2CN(C(=O)CCc3ccccc3)[C@H](c3cccc(-c4ccccc4)c3)C[C@@H]21

Going on with the list.
Values run as follows: rRNA inh HTS RFP	rRNA inh HTS	MLL AF4-AF9 inh	rRNA inh HTS OD600	FGF22 binding
- O=C(O)C[C@@H]1C[C@@H]2c3cc(NC(=O)c4ccc5c(c4)OCO5)ccc3O[C@@H]2[C@H](CO)O1
    0.6	4	-2.3	3	i
- O=C(C[C@@H]1CC[C@@H]2[C@H](COC[C@@H](O)CN2Cc2cccc(C(F)(F)F)c2)O1)NCc1ccncc1
    3.7	7	-0.8	7	i
- C[C@@H]1CCCCO[C@H](CN(C)Cc2ccccc2)[C@H](C)CN([C@@H](C)CO)C(=O)c2cc(NC(=O)Nc3ccccc3)ccc2O1
    4.0	5	14	-2	i
- C[C@@H]1CN([C@@H](C)CO)C(=O)c2cc(C#CCc3ccccc3)cnc2O[C@@H]1CN(C)Cc1ccccn1
    -1.9	5	3.6	8	i
- CC(C)NC(=O)N(C)C[C@@H]1Oc2ccc(NC(=O)Nc3cccc4ccccc34)cc2C(=O)N([C@H](C)CO)C[C@@H]1C
    -0.7	2	-1.9	3	i
- COc1cc(/C=C(\C#N)c2nc3ccc(C)cc3[nH]2)cc([N+](=O)[O-])c1O
    17	-9	7.5	-2	i
- CCOC(=O)C1(C)Oc2ccccc2C(C(=O)OC)=C1C(=O)OC (configuration not stated)
    -0.5	-9	-8.9	-10	i
- C[C@H](CO)N1C[C@H](C)[C@H](CN(C)C(=O)Nc2ccc3c(c2)OCO3)Oc2ncc(C#Cc3ccccc3)cc2C1=O
    0.6	-1	6.6	2	i
- COc1ccccc1NC(=O)Nc1ccc2c(c1)C(=O)N(C)[C@H]1CC[C@H](CC(=O)Nc3ccc4c(c3)COC4)O[C@@H]1CO2
    -0.1	-1	0.9	-7	i
- C[C@@H]1CN([C@@H](C)CO)C(=O)c2cccc(NC(=O)c3cnccn3)c2O[C@@H]1CN(C)Cc1ccc(Oc2ccccc2)cc1
    0.8	-15	-1.7	-39	i
- Cc1ccc(CNS(=O)(=O)c2ccc(-n3cccn3)cc2)cc1
    0.3	-3	1.6	1	i
- COc1ccccc1-c1cccc([C@@H]2C[C@H]3[C@H](CON3C)CN2Cc2ccccc2)c1
    3.8	2	3.6	-6	.
- COc1ccc(C(NC(=O)CN2C(=O)NC3(CCc4ccccc43)C2=O)c2ccc(OC)cc2)cc1 (configuration not stated)
    8.7	-9	2.7	-9	i
- O=C(N[C@@H]1CC[C@H](CCn2cc(-c3ccccc3)nn2)O[C@H]1CO)c1ccccc1F
    -1.6	-1	-1.6	9	i
- O=C1CCCCC1(O)Cc1ccc2c(c1)OCO2 (configuration not stated)
    -0.7	14	-7.6	10	i
- COCC#Cc1cnc2c(c1)C(=O)N([C@@H](C)CO)C[C@@H](C)[C@H](CN(C)C(=O)Nc1cc(F)ccc1F)O2
    0.1	8	-12	12	i
- Cc1cc(Br)cn2c(Cc3ccsc3)c(-c3ccccc3)nc12
    14	-29	1.4	-15	i
- COc1ccc(CN2C[C@H](O)COC[C@H]3O[C@@H](CC(=O)NCc4ccncn4)CC[C@@H]32)cc1
    0.5	0	0.4	8	i
- CC1=C(C(=O)N2CCOCC2)CC(CC(=O)NCCCCc2ccccc2)C(=O)N1Cc1ccc(C(C)(C)C)cc1 (configuration not stated)
    7.4	-11	1.6	-48	i
- C[C@@H]1CN([C@@H](C)CO)C(=O)Cc2cc(NC(=O)Cc3ccccc3)ccc2O[C@@H]1CN(C)S(=O)(=O)c1cccs1
    0.3	-1	-2.6	-9	i
- C/C=C/c1ccc([C@@H]2[C@@H](CN(CCC)C(C)=O)N(C(C)=O)[C@H]2CO)cc1
    -0.5	2	0.1&-0.1	0	i
- Cc1noc(C)c1S(=O)(=O)Nc1ccc2c(c1)C(=O)N([C@@H](C)CO)C[C@@H](C)[C@H](CN(C)S(=O)(=O)c1ccc(Cl)cc1)OCCCC[C@H](C)O2
    -3.4	1	-1.1	1	i
- O=S(=O)(Nc1ccc(Cl)cc1NS(=O)(=O)c1ccccc1)c1ccccc1
    -20	-60	-4.8	-77	i
- CNC[C@@H]1Oc2ccc(NC(=O)C3CCCCC3)cc2CC(=O)N([C@@H](C)CO)C[C@@H]1C
    -2.2	3	-4.6	12	i
- O=C(N[C@H]1C=C[C@@H](CC(=O)N2CCN(c3ccccc3)CC2)O[C@@H]1CO)c1ccncc1
    -1.1	2	-11	9	i
- C[C@@H]1CN([C@H](C)CO)C(=O)c2cc(N(C)C)ccc2O[C@H]1CN(C)Cc1ccc(Cl)c(Cl)c1
    -0.1	-12	28*	-35	i
- COc1ccc(-c2oc3c(c2C#CC(C)(C)O)C(OCCO)CC3)cc1 (configuration not stated)
    9.1	10	0.8	7	i
- COc1ccc(CN(C)C[C@H]2Oc3ccc(NS(=O)(=O)c4ccc(C)cc4)cc3C(=O)N([C@@H](C)CO)C[C@H]2C)cc1
    -0.2	-1	-4.3	-5	i
- O=C(N[C@H]1CC[C@@H](CCNS(=O)(=O)c2ccc(F)cc2)O[C@@H]1CO)c1cccc(F)c1
    -0.9	-2	-2.3	-3	i
- C[C@H](CO)N1C[C@H](C)[C@H](CN(C)Cc2ccc(C(=O)O)cc2)Oc2ccc(NC(=O)Cc3cn(C)c4ccccc34)cc2C1=O
    -0.8	-4	0.7	-1	i
- O=C(Nc1cccc2ccccc12)c1ccc2sc([C@@H]3O[C@H](CO)[C@@H](O)[C@H]3O)nc2c1
    1.4	3	-0.7	5	i
- COCCCNC1=C(C#N)C(=O)NC(c2cccc([N+](=O)[O-])c2)S1 (configuration not stated)
    4.1	-8	-7.3	8	i
- CNC[C@H]1Oc2cc(C#Cc3ccncc3)ccc2S(=O)(=O)N([C@@H](C)CO)C[C@@H]1C
    3.6	-3	-0.6	-6	i
- C[C@@H]1CCCCO[C@@H](CN(C)S(=O)(=O)c2ccccc2)[C@@H](C)CN([C@@H](C)CO)C(=O)c2cc(NC(=O)NC3CCCCC3)ccc2O1
    -2.2	-1	-2.5	3	i

From PubChem
